High-throughput results (PubChem BioAssay)
RE007 growth inh = less growth of the S. pombe RE007 Vpr strain; 360,000 compounds, 0.21% hits; Potency, µM (series often up to 92.2 µM), for inactives: top-dose activity change, negative = less growth; S. pombe RE007 Vpr strain, BacTiter-Glo ATP luminescence, 24 h; control for the full effect not named in the record; active = well fitted falling curve with a large enough effect; inconclusive = small, poorly fitted or top-dose-only effect; inactive = no such curve, though single readings can be large or run the other way;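 also: % is scaled to controls: 0 for no effect and ±100 for the full control effect; nearly all actives have a fitted effect of over 50% in size; the assay follows cell death caused by Vpr and the record does not say whether a fall means rescue or toxicity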
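Fission yeast strain RE007, carrying one chromosomally integrated HIV-1 vpr copy, was seeded at OD 0.01 in PMG+AL medium with 23 nL pinned compound. After 24 h at 30 °C and 99% humidity, viability was read by BacTiter-Glo luminescence.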
Marburg entry inh = Marburg virus entry inhibition; Marburg virus pseudotyped entry inhibition, cell reporter; control for the full effect not named in the record; about a third of the inactives were read at about 46 µM; Potency, µM (doses to about 37.8 µM), without a hit: at the top dose activity change, negative = inhibition, actives largely listed as inhibitors; 300,000 compounds, 1.8% hits; active = well fitted inhibition curve with a large enough effect; inconclusive = small, poorly fitted or top-dose-only effect, or effect the other way; inactive = flat fitted curve, though single readings scatter; tested in HEK293 cells; about a fifth of its hits are not listed in these tables; also: % is scaled to controls: 0 for no effect and ±100 for the full control effect; luciferase read-out
Cruzain inh Det = blocks cruzain activity in presence of Triton detergent. 200,000 compounds, 0.43% hits. Potency, µM, inactives show max response, negative = inhibition, hits mostly inhibitors. P25779. purified cruzain, Z-FR-AMC fluorescence, 0.01% Triton; active = well fitted curve in the direction sought with a large enough effect; inconclusive = small, poorly fitted or top-dose-only effect, or another doubt; inactive = no such curve, though single readings can be large; an effect the other way counts as inactive or inconclusive;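 also: plate controls were neutral wells for no effect and buffer without enzyme for full effect; nearly all actives have a fitted effect of over 40% in size; top concentration of the series not given in the record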
Target sequence (P25779 123-467 limits assumed): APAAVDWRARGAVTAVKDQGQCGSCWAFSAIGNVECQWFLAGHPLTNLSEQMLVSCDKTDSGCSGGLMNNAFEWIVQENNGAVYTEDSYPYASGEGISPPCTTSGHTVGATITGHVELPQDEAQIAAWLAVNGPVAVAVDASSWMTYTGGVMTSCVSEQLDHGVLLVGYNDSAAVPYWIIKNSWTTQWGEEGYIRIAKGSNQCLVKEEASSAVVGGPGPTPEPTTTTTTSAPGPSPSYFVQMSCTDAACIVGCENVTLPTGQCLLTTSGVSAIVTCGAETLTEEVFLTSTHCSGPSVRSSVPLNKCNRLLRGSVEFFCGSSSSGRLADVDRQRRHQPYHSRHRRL
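Enzyme 1.5 nM, Z-FR-AMC 2 uM, NaOAc 100 mM pH 5.5, DTT 5 mM, Triton X-100 0.01%; 15 min RT compound preincubation; kinetic ex360/em450, 60 s delta.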
SARS PLpro yeast = SARS-CoV PLP inhibition in yeast; S. cerevisiae expressing SARS-CoV PLpro, growth rescue; control for the full effect not named in the record; Potency, µM (series often up to 32.9 µM), without a hit: top-dose activity, positive = growth rescue; 330,000 compounds, 0.19% hits; AID 485353; also: 0% is about no effect; nearly all actives have a fitted effect of over 55% in size; growth read by luminescence after 48 h
2A StopGo = lowers the luciferase signal of an FMDV 2A StopGo reporter. human cells with a luciferase reporter of 2A StopGo recoding; control for the full effect not named in the record. Potency, µM (highest dose often 57.9 µM), for inactives: top-dose signal change, negative = less light. 410,000 compounds, 1.2% hits; active = well fitted falling curve with a large enough effect; inconclusive = small, poorly fitted or top-dose-only effect; inactive = no such curve, though single readings can be large or run the other way; tested in HEK293T cells; also: % is scaled to controls: 0 for no effect and ±100 for the full control effect; nearly all actives have a fitted effect of over 45% in size; luciferase light after 4 h
Cruzain noTriton = inhibitors of Trypanosoma cruzi cruzain without detergent; purified cruzain, Z-FR-AMC fluorescence, no detergent; Potency, µM, without a hit: max response, negative = inhibition, most hits filed as inhibitors; 200,000 compounds, 2.3% hits; active = well fitted curve in the direction sought with a large enough effect; inconclusive = small, poorly fitted or top-dose-only effect, or another doubt; inactive = no such curve, though single readings can be large; an effect the other way counts as inactive or inconclusive;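 also: plate controls were enzyme without inhibitor for no effect and buffer without enzyme for full effect; nearly all actives have a fitted effect of over 40% in size; top concentration of the series not given in the record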
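Detergent-free condition (0.00005% Triton X-100) in acetate buffer pH 5.5 with DTT. 1.5 nM enzyme and compound were pre-mixed 15 min, then 2 uM Z-FR-AMC substrate added; reaction progress from fluorescence change between first and third reads (60 s).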
NS1 function inh = influenza NS1 inhibition; S. cerevisiae slowed by influenza A NS1, growth recovery by OD600; Potency, µM (titrated, usually from 46.1 µM), for the others: at the highest dose activity, positive = more growth; 270,000 compounds, 0.4% hits; also: actives are rising curves; nearly all actives have a fitted effect of over 50% in size
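OD600 was taken as the measure of yeast growth restored by compound in an NS1-expressing S. cerevisiae strain. Cells had been washed out of glucose medium and diluted 1:100 into galactose -URA medium, pH 6.0.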
Lassa entry inh = blocks Lassa virus binding to or entry into cells; Lassa virus pseudotype entry inhibition, cell reporter; control for the full effect not named in the record; Potency, µM (doses to about 37.9 µM), inactives show at the top dose activity change, negative = inhibition, usual class: inhibitors; 300,000 compounds, 1.2% hits; AID 540256; active means well fitted inhibition curve with a large enough effect; inconclusive means small, poorly fitted or top-dose-only effect, or effect the other way; inactive means flat fitted curve, though single readings scatter; tested in HEK293 cells; also: % is scaled to controls: 0 for no effect and ±100 for the full control effect; nearly all actives have a fitted effect of over 50% in size; luciferase read-out
Active calls of the source: *; ? = inconclusive; / = no result given; & = joins results of further samples; [ ] = another dose, or the depositor's remark. Unless noted, calls follow the shape of the dose curve; as a rule, active means well fitted rising curve with a large enough effect; inconclusive means small, poorly fitted or top-dose-only effect; inactive means no such curve, though single readings can be large or run the other way. Potency is read from the fitted curve at half-maximal effect.

Each structure is followed by: RE007 growth inh, Marburg entry inh, Cruzain inh Det, SARS PLpro yeast, 2A StopGo, Cruzain noTriton, NS1 function inh, Lassa entry inh
> CN1CCN(S(=O)(=O)c2csc(C(N)=O)c2)CC1
→ 2%, /, /, -3%, -13%, /, 9%, /
> CCOC(=O)C1(CCOc2ccccc2)CCN(Cc2cnc(SC)nc2)CC1
→ -2%, ?, /, -1%, ?, /, 0%, ?
> CCn1cc(C2=NC(C(C)C)CO2)c2ccccc21 (stereo not given)
→ -12%, /, 0.8%, 1%, 8%, 4%, 2%, /
> CC(C)c1onc(C(=O)N2CCCCC2)c1[N+](=O)[O-]
→ 13%, 2%, -2.5%, -1%, -11%, -1%, 0%, 1%
> CCOc1ccc(S(=O)(=O)NCCC(=O)N2CCN(c3ccccc3O)CC2)cc1
→ -23%, -15%, /, -29%, -22%, /, /, -18%
> Cc1cccc(NC(=O)CSc2nnc(CNC(=O)c3ccc(S(=O)(=O)N(C)C)cc3)n2-c2ccc(F)cc2)c1
→ -8%, ?, -3.4%, -6%, 8%, ?, -15%, ?
> Cc1ccc(N(C(C)C(=O)N2CCN(Cc3ccccc3)CC2)S(C)(=O)=O)cc1 (stereo not given)
→ -5%, -22%, /, 9%, ?, /, -1%, -24%
> O=[N+]([O-])c1ccc(N/N=C\c2cccn2-c2ccccc2)nc1
→ -21%, ?, -4.0%, -15%, ?, -12%, 2%, ?
> CC1(S(=O)(=O)O)CC(=O)c2ccccc2C1=O (stereo not given)
→ -24%, /, /, -22%, ?, /, -61%, /
> COc1cc(NC(=O)Cn2cnc(S(=O)(=O)N3CCCC3)c2)cc(OC)c1OC
→ 2%, /, -3.2%, -4%, 22%&30%, -1%, -3%, 1%[46.1 µM]
> Cc1ccccc1CNC(=O)c1sc2ncnc(N(C)C3CCCCC3)c2c1C
→ /, /, -3.3%, /, -23%, 13%, /, ?
> COc1cc(OC)c(C(=O)NNC(=O)CN(C)S(=O)(=O)c2ccc(Cl)cc2)cc1OC
→ 4%, 9%, /, 2%, -15%, /, /, -8%
> O=C(NCCCN1CCOCC1)c1cc(S(=O)(=O)N2CCN(c3ccccc3)CC2)ccc1Cl
→ -2%, ?, /, -2%, -14%, /, /, -15%
> COc1ccc(CCNC(=O)c2ccc(N(C)S(=O)(=O)c3ccc(C)cc3)cc2)cc1OC
→ 13%, /, /, -1%, ?, /, -8%, /
> COc1ccc(C(=O)NCC(=O)N2CCN(c3ccc(Cl)cc3)CC2)cc1
→ -19%, 0%[46.1 µM], /, 1%, -5%, /, 2%, 6%[46.1 µM]
> c1coc(-c2ccnc(-c3ccncc3)n2)c1
→ -28%, ?, /, -1%, -3%, /, 0%, 10%[46.1 µM]
> Cc1cccc(C)c1OCc1nnc(NC(=O)CSc2ccc(Cl)cc2)s1
→ -22%, ?, 0.9%, -17%, -9%, 25µM*, 2%, -13%
> Cc1noc(C(=O)N2CCN(Cc3ccc4c(c3)OCO4)CC2)c1Cl
→ 16%, /, /, 12%, 0%, /, 1%, /
> COc1ccc(NC(=O)Cn2c(=O)n(-c3cccc(C(F)(F)F)c3)c(=O)c3sccc32)cc1
→ /, ?, -3.0%, /, -24%, 2%, /, 19%[46.1 µM]
> Cc1onc(-c2c(Cl)cccc2Cl)c1C(=O)NNC(=O)c1c(-c2c(Cl)cccc2Cl)noc1C
→ -6%, -18%, /, 1%, -24%, /, 7%, -2%
> CC(C)CCn1c(N)c(C(=O)NCc2cccs2)c2nc3ccccc3nc21
→ 11%, ?, 0.9%, -8%, 0%, -1%, 16%, -22%
> Cc1ccc(OCCC(=O)OCC(=O)Nc2ccc3c(c2)OCO3)cc1
→ -6%, 17%[46.1 µM], /, -1%, 12%, /, /, 17%
> CCOC(=O)N1CCc2c(sc(NCc3sccc3C)c2C(=O)Nc2cc(OC)ccc2OC)C1
→ /, /, -5.4%, /, -1%, 22%, /, -1%[46.1 µM]
> CCCc1cc(C(=O)N2CCCC(CO)(CCCc3ccccc3)C2)n(C)n1 (stereo not given)
→ 0%, -25%, /, -4%, -30%, /, -12%, ?
> CC(=O)NNC(=O)c1ccncc1
→ 12%, 11%, -1.3%, 20%, -18%, 4%, 16%, 7%
> CCOCCc1nnc(NC(=O)c2cccs2)s1
→ -9%, 18%, 3.7%, -10%, 58%[activator], 4%, -43%, ?
> CSc1nsc(SC)c1C(=O)N1CCN(S(=O)(=O)c2ccc(C)cc2)C1C (stereo not given)
→ -7%, -8%, 0.1%, 0%, 0%, -1%, -3%, 0%
> CCCC(C(=O)NCc1ccc(OC)cc1)N(Cc1ccco1)C(=O)c1snc(C(N)=O)c1N (stereo not given)
→ 7%, 11%, -5.2%, -3%, -23%, -7%, -10%, ?
> Cc1ccc(NC(=O)C2CCCN2C(=O)OCc2ccccc2)cc1F (stereo not given)
→ 0%, /, /, 3%, 0%, /, -6%, /
> CC(C)(C)C(=O)C[n+]1ccccc1
→ 10%, 5%&5%, /, -1%, -10%, /, 0%, ?
> O=C(CSc1nc(-c2cccs2)nc2cc(=O)[nH]n12)Nc1cccc(C(F)(F)F)c1
→ /, /, -6.9%, /, -15%, ?, /, 4%[46.1 µM]
> COCCN(CCOC)S(=O)(=O)c1ccc(C(=O)NCCCN2CCOCC2)cc1
→ 2%, 16%, 4.8%, -1%, -16%, 9%, 1%, 2%
> CCn1cc(C(=O)O)c(=O)c2cnc(N3CCN(C(=O)Nc4cccc5ccccc45)CC3)nc21
→ /, /, -5.7%, 8%, /, 7%, ?, /
> CCOC(=O)c1cc2c(ccn2C)n1CC(=O)N(CC)CC
→ -7%, 3%[46.1 µM], /, 0%, -1%, /, 2%, 5%[46.1 µM]
> Cc1cccc(NC(=O)c2nc[nH]c2C(=O)NCC(=O)OC(C)(C)C)c1
→ 2%, /, /, -1%, 0%, /, 10%, /
> COc1cc(/C=N/NC(=O)NC2CCCCC2)ccc1O
→ -12%, 14%[46.1 µM], /, -2%, 4%, /, -1%, ?
> COc1ccc(C(C)NC(=S)NC2CCCCC2)cc1OC (stereo not given)
→ -1%, /, /, ?, -1%, /, 8%, /
> Cc1cc(OCCCn2ccnc2)cc(C(C)C)c1
→ -11%, ?, /, 1%, -11%, /, -2%, 16%[46.1 µM]
> COCCN(C(=O)CSc1cc(C)c2ccccc2n1)c1c(N)n(CC(C)C)c(=O)[nH]c1=O
→ -5%, ?, /, 19%, -12%, /, /, 10%
> CCOc1ccccc1/C=N\Nc1cnn(Cc2ccccc2)c(=O)c1Cl
→ 5%, ?, /, -7%, -18%, /, /, -26%[46.1 µM]
> COc1ccc(C(=O)COC(=O)CCCC(=O)NC2CCCCC2)cc1
→ -14%, -19%, /, -4%, -26%, /, -21%, -9%
> O=[N+]([O-])c1ccc2nonc2c1Nc1ccccc1
→ -2%, -1%, /, 6%, 2%, /, -12%, -18%
> COc1ccc(C(=O)NCCn2nc(C)cc2C)cc1OC1CCN(C(C)=O)CC1
→ 1%, -19%, /, -3%, -13%, /, -6%, 5%
> COc1ccc(C(C)=O)cc1CN(C)C
→ -15%, 4%, -0.6%, /, 9%, -6%, -3%, 8%
> COc1cc(NC(=O)NCC2CCN(Cc3ccccc3F)CC2)cc(OC)c1
→ 7%, ?, /, -1%, 17%, /, 7%, 3%[46.1 µM]
> Cc1ccsc1/C=N/NC(=S)NCc1ccccc1
→ 3%, -3%, /, 16%, 29%, /, /, ?
> CCCCNC(=O)/C(C#N)=C/c1ccc(-c2ccc(S(=O)(=O)N3CCOCC3)cc2)o1
→ /, ?, -9.5%, ?, -22%, ?, ?, ?
> COc1ccc(NC(=O)COC(=O)C2=COCCO2)cc1OC
→ -14%, 17%[46.1 µM], /, 1%, 21%, /, /, 10%[46.1 µM]
> O=C(CSc1ccc(Cl)cc1)NC(=O)NC1CCCC1
→ -1%, 0%, /, 3%, 0%, /, /, -11%
> Cc1cc(C)cc(NC(=O)C(Cc2ccccc2)NS(=O)(=O)c2ccc3c(c2)c(=O)n(C)c(=O)n3C)c1 (stereo not given)
→ /, ?, -1.6%, /, -28%, ?, /, -15%[46.1 µM]
> COc1ccc(C(=O)N/N=C/c2ccc(N3CCOCC3)o2)cc1OC
→ 25%, -21%[46.1 µM], /, 7%, -19%, /, /, 9%[46.1 µM]
> COc1cccc(NS(=O)(=O)c2ccc3c(c2)N(C(C)=O)CCS3)c1
→ 4%, -17%[46.1 µM], /, -9%, 3%, /, -3%, ?
> COc1ccc(CC(C)NCCc2ccc(OC)c(OC)c2)cc1 (stereo not given)
→ 73%, ?, /, 0%, -15%, /, -4%, ?
> CCC(C)[C@@H](CN(N=O)[C@@H](Cc1ccccc1)CN(C)N=O)N(CCc1ccccc1)N=O (stereo not given in full)
→ 9%, /, /, -1%, -4%, /, 15%, /
> OCCN(CCO)Cc1csc2ccccc12
→ -4%, 2%, 3.3%, 3%, -19%, 2%, ?, ?
> Cn1c(=O)c2c(nc(CN3CCC(C(N)=O)CC3)n2Cc2c(Cl)cccc2Cl)n(C)c1=O
→ 5%, 6%&6%, 4.9%, -1%, 4%, -1%, ?, 15%
> CN(C)c1ccc(/C=N\Nc2nc(-c3ccccc3)cc(=O)[nH]2)cc1
→ 11%, -11%, -6.6%, 1%, -7%, ?, 5%, -2%
> Cc1cccc(C)c1NC(=O)CN(C)CC(=O)Nc1cc(Cl)ccc1C#N
→ 8%, -3%, -5.9%, 7%, -26%, 6%, -7%, -12%
> CCN(CC)c1ccc(NC(=O)c2sc3nc(-c4ccccc4)cn3c2C)cc1
→ /, /, -7.4%, /, -26%, -30%, /, ?
> O=c1[nH]c(=S)[nH]c(O)c1/C=C1/C=c2ccccc2=N1
→ -20%, ?, /, 3%, 25µM*, /, 8%, ?
> CCCCN1CNC(=S)N(c2ccccc2OCC)C1
→ -11%, ?, 0.0%, 6%, -13%, -12%, 7%, 6%
> Nc1cc(=O)[nH]c(SCC(=O)NNC(=O)c2ccccc2)n1
→ -17%, 27%, /, 1%, 12%, /, /, ?
> CCn1c(COC(=O)CNC(=O)c2cc(OC)c(OC)c(OC)c2)nc2cc(S(=O)(=O)N(C)C)ccc21
→ 5%, 23%, /, 0%, -22%, /, /, -6%
